Compound activity as filed in PubChem.
A488 autofl – compound fluoresces in the A488 spectral region; compound autofluorescence, A488 spectral region, dye equivalency; stronger effect = higher value; max dye equivalency, M; actives 0.1% (n = 59,000); AID 591; active = above 10 nM dye equivalent; inconclusive = 1 to 10 nM; inactive = 1 nM or less; about half of its hits are not listed in these tables;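 also: highest value over a series up to 38 µM; compound alone in buffer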
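Autofluorescence read at ex 480/em 540 nm after 15 min RT in 100 mM Tris pH 8.0; compound signal normalized to A488 standard series on each plate, reported as dye-equivalent concentration at each test concentration.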
AID923 – qHTS Assay for Allosteric/Competitive Inhibitors of Caspase-1: Spectroscopic Profiling in AFC Spectral Region; compound fluorescence, AFC spectral region (405/520 nm); almost no hit is shown here; Potency, µM (titrated, usually from 57.5 µM), for the others: at the highest dose fluorescence increase, actives largely listed as activators; actives 1.1% (n = 75,000); AID 923, 2007; active = well fitted activation curve with a large enough effect; inconclusive = small, poorly fitted or top-dose-only effect;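 also: potency is read from the fitted curve at half-maximal effect; 0% is about no effect; scaled to a free AFC standard on each plate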
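Baseline compound fluorescence (AFC region, 405 nm ex/520 nm em) taken from the intercept of kinetic reads with 50 nM caspase-1 and 5 uM Ac-WEHD-AFC; normalized to an on-plate AFC standard curve; compounds titrated up to 57 uM.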
TSHR agonist – activates the human thyroid stimulating hormone receptor; P16473; Potency, µM (highest dose often 57.1 µM), inactives show at the top dose activation, hits mostly activators; actives 0.48% (n = 73,000); HEK293-CNG-TSHR cells (CNG channel as cAMP sensor), membrane potential dye, cAMP; active = well fitted activation curve of enough size with the parental cells flat; inconclusive = any curve in the parental cells; inactive = parental cells flat and receptor cells flat or falling; also: potency is read from the fitted curve at half-maximal effect; % of control where 0% means no effect; weak receptor curves with flat parental cells got no call and are not listed
Target sequence (P16473 whole entry, looked up): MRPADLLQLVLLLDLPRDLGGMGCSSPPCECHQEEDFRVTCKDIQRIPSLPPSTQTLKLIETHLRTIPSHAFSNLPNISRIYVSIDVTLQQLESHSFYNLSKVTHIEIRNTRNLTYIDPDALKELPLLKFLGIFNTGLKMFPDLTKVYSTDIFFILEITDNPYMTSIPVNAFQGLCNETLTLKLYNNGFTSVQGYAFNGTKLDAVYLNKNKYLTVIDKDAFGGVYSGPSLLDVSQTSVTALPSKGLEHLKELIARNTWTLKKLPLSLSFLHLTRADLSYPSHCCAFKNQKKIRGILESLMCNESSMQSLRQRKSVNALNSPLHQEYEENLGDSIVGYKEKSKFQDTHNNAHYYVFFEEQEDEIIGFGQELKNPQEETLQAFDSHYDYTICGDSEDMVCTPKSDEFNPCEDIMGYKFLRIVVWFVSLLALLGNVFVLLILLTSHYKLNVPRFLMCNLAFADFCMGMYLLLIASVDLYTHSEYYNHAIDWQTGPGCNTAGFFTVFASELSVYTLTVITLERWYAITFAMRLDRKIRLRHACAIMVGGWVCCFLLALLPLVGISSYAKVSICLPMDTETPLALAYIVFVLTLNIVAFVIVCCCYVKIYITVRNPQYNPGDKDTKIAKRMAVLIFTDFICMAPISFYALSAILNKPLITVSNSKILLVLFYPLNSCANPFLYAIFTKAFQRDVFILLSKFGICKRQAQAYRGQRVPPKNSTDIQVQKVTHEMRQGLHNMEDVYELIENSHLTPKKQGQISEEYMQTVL
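cAMP rise detected as CNG-channel membrane depolarization by fluorescent dye (emission 590 nm), 30 min after compound, following 60 min dye loading containing 100 uM RO 20-1724 at room temperature. Cells: TSHR/CNG HEK 293, with parental CNG HEK 293 as control.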
Resorufin autofl – resorufin region autofluorescence; Compound fluorescence, resorufin region 547/598 nm, buffer; stronger effect = higher value; actives 0.04% (n = 59,000); max dye-equivalent concentration, M; active = above 10 nM dye equivalent; inconclusive = 1 to 10 nM; inactive = 1 nM or less; a few of its hits are not listed in these tables; also: highest value over a series up to 38 µM
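Compounds in 100 mM Tris buffer, pH 8.0, incubated 15 min at room temperature, then read with 547 nm excitation and 598 nm emission filters. Fluorescence was converted to dye-equivalent concentration using an on-plate six-point resorufin standard curve.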
A647 fluor – compound fluoresces in the A647 spectral region; Compound fluorescence, A647 channel (570/671 nm), Tris buffer; max dye-equivalent concentration, M; 59,000 tested, under 10 active; AID 592; active means above 1 µM dye equivalent; inconclusive means 0.1 to 1 µM; inactive means 0.1 µM or less;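 also: values scaled relative to a standard on each plate; highest value over a series up to 38 µM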
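Compounds pinned into 100 mM Tris pH 8.0, 15 min at room temperature, then read with 570 nm excitation/671 nm emission filters. Fluorescence normalized to an on-plate six-point Alexa 647 standard curve, giving dye-equivalent concentration per compound concentration.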
* marks the source's active call; other numbers are inactive results; i = inactive; ? = inconclusive; · = no result given; [ ] = remark or other dose. These rows are one share of the data; rates above refer to the full screens.

SMILES	A488 autofl	AID923	TSHR agonist	Resorufin autofl	A647 fluor
Cc1cc(C)n(-c2nnc(C)n2/N=C/c2ccccc2OCc2ccccc2Cl)n1	·	-1.9%	?	·	·
Cc1cnc(CNc2nc(-c3ccoc3)nc3ccccc23)cn1	i	3.7%	?	i	2.1e-09
C=CCSc1nc2c(c(=N)n1CC=C)C1CCCC1S2 (configuration not stated)	i	1.4%	·	i	1e-09
CCCc1cc(NCCCCO)n2c(nc3ccccc32)c1C#N	i	·	·	i	1.9e-08
O=C1CC(C2CCCO2)C(=O)N1Cc1ccccc1 (configuration not stated)	·	-0.8%	-5%[11.4 µM]	·	·
COc1cccc(C(c2sc3nc(C)nn3c2O)N2CCN(C(=O)c3ccco3)CC2)c1 (configuration not stated)	·	9.2%	?	·	·
COc1cc2nc(CC(C)C)n(NC(=O)c3ccccc3)c(=O)c2cc1OC	i	-0.2%	10%	i	2.8e-09
CCOC(=O)COc1c(OC)cc(Cl)cc1C1NC(=O)NC(C)=C1C(C)=O (configuration not stated)	i	-0.1%	13%	i	6.4e-09
Cn1c(=O)c2c(nc(NC3CCCCC3)n2Cc2ccccc2)n(C)c1=O	·	-2.4%	?	·	·
CCC(c1nnnn1CCC(C)C)N1CCC(C(N)=O)CC1 (configuration not stated)	i	1.2%	2%	i	1.3e-08
O=C(OCn1nnc2ccccc2c1=O)c1ccc(S(=O)(=O)N2CCOCC2)cc1	i	-1.4%	6%	i	2.7e-09
COc1cc(C(=O)OC(C)CN2CCCC2)cc(OC)c1OC (configuration not stated)	i	-0.1%	-4%	i	1.2e-09
CC(NS(=O)(=O)c1ccc(OCC(=O)N2CCOCC2)cc1)c1ccccc1 (configuration not stated)	i	0.8%	2%	i	1.3e-08
COc1ccc(CN2CCCCC2C(=O)Nc2ccc(OC)c(OC)c2)cc1OC (configuration not stated)	·	1.5%	8%	·	·
CCOC(=O)CSc1nc2c(c(=O)[nH]c(=O)n2C)n1CCCc1ccccc1	i	0.8%	15%	i	1e-08
COc1ccc(-c2noc(C3CCCN(C(=O)c4cccs4)C3)n2)cc1 (configuration not stated)	i	-1.8%	·	i	2.2e-08
CC(=O)Nc1cccc(OCC(=O)NS(=O)(=O)c2ccc(C)cc2)c1	i	-2.1%	-3%	i	1.8e-08
Cc1csc(N(C)C(=O)CSc2nnc(COc3cccc4ccccc34)o2)n1	i	-1.1%	16%	i	1e-09
CCC(=O)N1Cc2ccccc2-c2ccccc2C1=O	i	1.2%	8%	i	2.4e-09
Cc1cc(C)n2nc(C(=O)Nc3ccccc3N3CCOCC3)nc2n1	i	-0.7%	1%	i	1.8e-08
O=C(Cc1nc2ccccc2s1)c1ccc(O)cc1O	i	16%	?	i	1.8e-08
COCCNC(=O)CSc1nc2cc(OC)c(OC)cc2c(=O)n1Cc1ccc(OC)cc1	i	1.1%	3%	i	9.9e-09
Cc1cc2cc(C)c3nnc(SCC(=O)NCc4ccco4)n3c2cc1C	i	-0.6%	27%	i	2.1e-08
Cc1cc2cc(CNC(=O)c3cccs3)ccc2n1C	i	4.2%	4%	?	1.7e-08
c1ccc2c(c1)nc(CN1CCOCC1)n1c3ccccc3nc21	i	·	·	i	2.6e-09

Single records, as listed above. Values in the order: A488 autofl	AID923	TSHR agonist	Resorufin autofl	A647 fluor
Listed for COc1cccc(C(c2sc3nc(C)nn3c2O)N2CCN(C(=O)c3ccco3)CC2)c1 (configuration not stated) : ·	9.2%	?	·	·
Listed for COc1cc2nc(CC(C)C)n(NC(=O)c3ccccc3)c(=O)c2cc1OC : i	-0.2%	10%	i	2.8e-09
Listed for Cc1cc2cc(C)c3nnc(SCC(=O)NCc4ccco4)n3c2cc1C : i	-0.6%	27%	i	2.1e-08
Listed for C=CCSc1nc2c(c(=N)n1CC=C)C1CCCC1S2 (configuration not stated) : i	1.4%	·	i	1e-09
Listed for Cc1csc(N(C)C(=O)CSc2nnc(COc3cccc4ccccc34)o2)n1 : i	-1.1%	16%	i	1e-09

The listing picks up with the four entries that preceded the break.
SMILES	A488 autofl	AID923	TSHR agonist	Resorufin autofl	A647 fluor
COCCNC(=O)CSc1nc2cc(OC)c(OC)cc2c(=O)n1Cc1ccc(OC)cc1	i	1.1%	3%	i	9.9e-09
Cc1cc2cc(C)c3nnc(SCC(=O)NCc4ccco4)n3c2cc1C	i	-0.6%	27%	i	2.1e-08
Cc1cc2cc(CNC(=O)c3cccs3)ccc2n1C	i	4.2%	4%	?	1.7e-08
c1ccc2c(c1)nc(CN1CCOCC1)n1c3ccccc3nc21	i	·	·	i	2.6e-09
CC(=O)Nc1cccc(NC(=O)c2c(-c3ccccc3Cl)noc2C)c1	·	0.0%	21%	·	·
COc1ccc(OC)c(NC(=O)CSc2nc3ccccc3c(=O)n2CCNC(C)=O)c1	i	-0.4%	13%	i	9.1e-09
O=C(Cc1cn2ccsc2n1)Nc1cccc2cnccc12	i	0.4%	0%	i	2.2e-09
COc1ccc(NC(=O)CN2CCC(C(N)=O)CC2)cc1	i	0.6%	2%[11.4 µM]	i	2e-08
CC1(C)CC[C@]2(C(=O)O)CC[C@]3(C)C(=CC[C@@H]4[C@@]5(C)CC[C@H](O)C(C)(C)[C@@H]5CC[C@@]43C)[C@@H]2C1	i	·	-3%	i	1e-09
CCOC(=O)c1c(NC(=O)c2ccco2)sc2c1CCCC2	·	1.5%	4%	·	·
CCN(c1ccccc1)S(=O)(=O)c1ccc(Oc2ccc(-n3ccnc3)cc2)nc1	i	1.1%	25µM*	i	5e-09
COc1ccc(N(C)S(=O)(=O)c2ccc3c(c2)CCC(=O)N3)cc1	i	1.3%	0%	i	3.1e-09
CC1=C(C(=O)Nc2ccccc2)C(c2ccc(C)o2)n2ncnc2N1 (configuration not stated)	i	-0.9%	4%	i	2.4e-08
COc1ccccc1CNc1nc2nc(C)cc(=O)n2[nH]1	i	-1.1%	3%	i	2.3e-08
O=C(Nc1cccc(F)c1)c1ccc2c(c1)OCO2	i	-1.7%	10%	i	1e-09
c1ccc(-c2nnc(CSc3nc4ccccc4[nH]3)o2)cc1	i	0.5%	36%	i	2.9e-09
CCOc1ccc2[nH]c(=O)c(C(c3nnnn3CCOC)N3CCOCC3)cc2c1 (configuration not stated)	i	2.3%	-1%	i	9.6e-09
CN1C(=O)C2CN(CCc3ccccc3)CNC2N(C)C1=O (configuration not stated)	i	1.8%	-7%	i	1.1e-08
CCOC(=O)COc1ccc(S(=O)(=O)NCc2ccco2)cc1	i	0.3%	?	i	1e-09
Cc1cc(NC(=O)CSc2ccccc2)no1	i	1.5%	-3%	i	1e-09
CS(=O)(=O)N1CCN(c2nnc(-c3ccccc3)c3ccccc23)CC1	i	0.8%	10%	i	1e-09
COc1ccccc1CC(=O)NCCc1ccc(S(N)(=O)=O)cc1	i	0.1%	-9%	i	1.2e-08
CCC(=O)Nc1ccc(NC(=O)c2cc3ccccc3o2)cc1	·	0.9%	-2%	·	·
O=C(CC(=O)Nc1ccccn1)Nc1ccccn1	i	1.5%	3%	i	4e-08
C=C1CC[C@H]2C(C)(C)[C@H](O)CC[C@]2(C)[C@@H]1COc1ccc2ccc(=O)oc2c1	i	·	?	i	2.6e-09
O=C(c1cnccn1)N1CCC2(CC1)CCN(C(c1ccccc1)c1ccccc1)CC2	i	-3.8%	0%	i	3.9e-09
O=C(O)[C@@H]1CCCN1Cc1c[nH]c2ccccc12	i	-0.1%[11.5 µM]	-1%[11.4 µM]	i	3.3e-08
Cc1cccc(NS(=O)(=O)c2cc(C(=O)OCC(=O)Nc3cc(C)on3)ccc2C)c1	i	0.7%	8%	i	1e-09
O=C(CCn1c(=O)oc2ccccc21)N1CCc2ccccc21	i	-3.4%	0%	i	1e-09

4 entries from above, as labelled records:
CCOC(=O)COc1c(OC)cc(Cl)cc1C1NC(=O)NC(C)=C1C(C)=O (configuration not stated)
- A488 autofl = i
- AID923 = -0.1%
- TSHR agonist = 13%
- Resorufin autofl = i
- A647 fluor = 6.4e-09

Cn1c(=O)c2c(nc(NC3CCCCC3)n2Cc2ccccc2)n(C)c1=O
- A488 autofl = ·
- AID923 = -2.4%
- TSHR agonist = ?
- Resorufin autofl = ·
- A647 fluor = ·

CCC(c1nnnn1CCC(C)C)N1CCC(C(N)=O)CC1 (configuration not stated)
- A488 autofl = i
- AID923 = 1.2%
- TSHR agonist = 2%
- Resorufin autofl = i
- A647 fluor = 1.3e-08

O=C(OCn1nnc2ccccc2c1=O)c1ccc(S(=O)(=O)N2CCOCC2)cc1
- A488 autofl = i
- AID923 = -1.4%
- TSHR agonist = 6%
- Resorufin autofl = i
- A647 fluor = 2.7e-09

Additional compounds.
SMILES	A488 autofl	AID923	TSHR agonist	Resorufin autofl	A647 fluor
O=C(O)c1cc(S(=O)(=O)Nc2cccc(Cl)c2)ccc1O	·	-1.6%	?	·	·
N#CC1=C(N)N(c2ccccc2)C2=C(C(=O)CCC2)C1c1ccsc1 (configuration not stated)	i	1.4%	-7%[11.4 µM]	i	2.9e-09
COC(=O)c1nonc1NCn1nnc2ccccc21	i	0.5%	9%	i	1.1e-09
Cc1c(C(=O)OCC(=O)N2CC(C)OC(C)C2)oc2ccc(Br)cc12 (configuration not stated)	i	-1.4%	?	i	9.2e-09
CC(=O)C1=C(C)OC(N)=C(C#N)C1c1ccncc1 (configuration not stated)	i	4.1%	2%	i	2.9e-08
CCCCCC1CC(CC(=O)O)C(=O)O1 (configuration not stated)	i	-1.3%	-1%	i	1e-09
O=C(O)CC1SC(=Nc2cccc(C(F)(F)F)c2)NC1=O (configuration not stated)	i	·	·	i	8.2e-09
Cc1cc(C)cc(N2C(=O)CC(n3ccnc3)C2=O)c1 (configuration not stated)	i	3.4%	5%	i	2.8e-09
CCCCCCC(=O)c1c(C)[nH]c(C(=O)OCC)c1C	·	0.0%	5%	·	·
CCOc1ccc(C2C(C(=O)c3ccco3)=C(O)C(=O)N2Cc2cccnc2)cc1 (configuration not stated)	i	0.7%	?	i	1.1e-08
COc1cccc(C(=O)Nc2cc(NC(=O)c3ccco3)ccc2OC)c1	i	0.0%	11%	i	2.7e-08
CCOC(=O)CSc1nnc(CNc2nc(-c3ccccc3)cs2)n1C	i	-1.4%	-5%	i	6.7e-08
C=CCc1c(C)nc(SC)nc1Nc1ccc(C(C)=O)cc1	·	0.5%	20%	·	·
Cc1oc(-c2ccc(Cl)cc2)nc1CN1CCCC(C(=O)NCCCN2CCCC2=O)C1 (configuration not stated)	·	-2.3%	-4%	·	·
N#Cc1cccc(NC(=O)N2CC[C@@]3(CCCN(C(=O)c4cnccn4)C3)C2)c1	i	-0.3%	1%	i	1.9e-09
COC(=O)c1ccccc1NC(=O)CC#N	i	-0.7%	8%	i	1.3e-08
COc1cccc(C(=O)Nc2ccc(NC(=O)C3CC3)cn2)c1	i	1.0%	-4%	i	1e-09
CCCCOc1ccc(NC2=NC3(CCCCC3)N=C(N)N2)cc1	i	0.1%	13%	i	1e-09
CCCn1c(C)nc2c(NCCCCN(C)C)nc(C)nc21	·	0.3%	6%	·	·
CCn1c(C)c(C(C)=O)c(NCc2ccccc2)nc1=S	i	-0.7%	4%	i	5.9e-08
CCOC(=O)NC(Nc1cc(C)on1)(C(F)(F)F)C(F)(F)F	i	·	·	i	4.3e-08
O=c1[nH]c(CN2CCCCC2)nc2c1C1(CCCC1)Cc1ccccc1-2	i	·	·	i	9.6e-08
